ClpP mod = qHTS Assay for Activators of ClpP | Potency, µM (doses to about 57.5 µM), inactives show at the top dose activity change, negative = active | 1.9% of 340,000 active | purified B. subtilis ClpP, FRET peptide cleavage, 20 min; active = well fitted falling curve with a large enough effect; inconclusive = small, poorly fitted or top-dose-only effect; inactive = no such curve, though single readings can be large or run the other way; also: potency is read from the fitted curve at half-maximal effect; the source files actives as falling curves though it sought activators and does not explain the sign; nearly all actives have a fitted effect of over 65% in size; many hits overshoot -100%
Target sequence (P80244 whole entry, looked up): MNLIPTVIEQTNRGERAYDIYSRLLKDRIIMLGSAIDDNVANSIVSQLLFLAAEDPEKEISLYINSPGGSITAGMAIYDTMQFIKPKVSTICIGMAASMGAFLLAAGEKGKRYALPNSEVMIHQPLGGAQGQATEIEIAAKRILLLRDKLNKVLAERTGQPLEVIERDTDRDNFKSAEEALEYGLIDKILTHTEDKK
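ClpP 10 microg/mL final, pH 8 Tris/KCl buffer with BSA, glycerol, Tween-20; compound pinned in; FRET-FV substrate; RT 20 min; Ex320/Em430; ΔFRET vs ADEP 5.8 microM, DMSO, no enzyme.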
TRPML1 ag = qHTS for Agonists of the Human Mucolipin Transient Receptor Potential 1 (TRPML1); TRPML1-expressing cells, Ca2+ dye fluorescence, FDSS; host cell line not named in the record; reference of the full effect not given here; activation, % (no concentration beside the values); 0.12% of 410,000 active; AID 624414, 2012; in the data active = activation above about 50%; inconclusive = about 30% to 50%; inactive = below about 30%; also: 0% is about no effect; the text of the record puts the active cut at 80%
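Cells: TRPML1-DL, 1X Tet inducer, ~16 h at 37 degrees C/5% CO2. Dye: ABD Ca8 no-wash + quencher, 45-90 min RT. Read: 10 s baseline, compound add, 110 s agonist phase; 54-4 EC80 (4uM final), 110 s antagonist phase.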
Sfp PPTase inh = qHTS Assay for Inhibitors of Bacillus subtilis Sfp phosphopantetheinyl transferase (PPTase); 3.5% of 310,000 active; Biochemical Sfp PPTase activity, qHTS; AID 1490, 2009; 4'-phosphopantetheinyl transferase ffp (Bacillus subtilis), Q9F4F7; Potency, µM, inactives show max response, negative = inhibition, usual class: inhibitors; active = well fitted inhibition curve with a large enough effect; inconclusive = small, poorly fitted or top-dose-only effect, or another doubt; inactive = no such curve, though single readings can be large or run the other way;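 also: the enzyme is Sfp with the accession as filed and its product quenches rhodamine fluorescence; potency is read from the fitted curve at half-maximal effect; 0% = enzyme reaction without inhibitor and -100% = no enzyme wells; top concentration of the series not given in the record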
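Step 1, compound plus 15 nM Sfp-PPTase, 15 min, room temperature. Step 2, add rhodamine-CoA (5 uM) and BHQ-2-YbbR (12.5 uM). Step 3, read 525/598 nm fluorescence at 0 and 30 min.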
TRPML1 inh = qHTS for Inhibitors of the Human Mucolipin Transient Receptor Potential 1 (TRPML1). activity change, negative = inhibition, % (no concentration beside the values). Mucolipin-1 (Homo sapiens), Q9GZU1. TRPML1-inducible cells, Ca2+ dye fluorescence, FDSS; active compounds read low; inhibition of EC80 agonist-evoked calcium signal. AID 624415, 2012. 0.02% of 390,000 active; in the data active means activity change below about -50%; inconclusive means about -30% to -50%; inactive means above about -30%;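 also: stimulus is agonist 54-4 at its EC80 concentration; % is scaled to controls: 0 for no effect and ±100 for the full control effect; compound concentration not given in the record; the text of the record puts the active cut at -80%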
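Tet-induced TRPML1-DL cells loaded with Ca8 no-wash calcium dye were read kinetically on FDSS. Compound addition was followed by EC80 agonist 54-4 (4 uM final); inhibition was read over 110 s.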
PINK1 modulator = A Quantitative High throughput Screen to Identify Chemical Modulators of PINK1 Expression. PINK1 immunofluorescence, high-content cytometry, 24 h. Potency, µM (doses to about 76.6 µM), without a hit: at the highest dose activation (PINK1 increase), hits mostly activators. 0.2% of 410,000 active; active = well fitted activation curve with a large enough effect; inconclusive = small, poorly fitted or top-dose-only effect; inactive = flat fitted curve, though single readings scatter; cell line not stated here;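 also: potency is read from the fitted curve at half-maximal effect; % of control where 0% means no effect; nearly all actives have a fitted effect of over 65% in size; a mitochondrial uncoupler was the plate control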
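A stable cell line was treated with compounds at 5 concentrations for 24 hours, with CCCP as control. PINK1 levels and mitochondrial localization were measured by immunofluorescence with mitochondrial, cell and nuclear markers after fixation, read by laser-scanning cytometry.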
Menin-MLL FL inh = qHTS Assay for Inhibitors Targeting the Menin-MLL Interaction in MLL Related Leukemias: Competition With Fluorescein Labeled MLL-derived Peptide. Fluorescence polarization, fluorescein-MLL peptide displacement from menin. FP activity change, % at 61.4 µM. 290,000 tested, under 10 active; inconclusive = falling polarisation curve, or a change in total fluorescence; inactive = total fluorescence flat and polarisation flat or rising; no compound was filed as active; the % refers to the polarisation; negative = inhibition;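 also: % of control where 0% means no effect; inhibitors lower the polarisation; unlabelled MLL peptide was the positive control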
TRPV1 PAM = HTS Assay for Compounds that Act as Potentiators of the Vanilloid Receptor 1; Transient receptor potential cation channel subfamily V member 1 (Homo sapiens), Q8NER1; TRPV1-expressing cells, Fluo-8 calcium influx, capsaicin EC20 potentiation; host cell line not named in the record; control for the full effect not named in the record; potentiation, % at 8.33 µM; 0.02% of 320,000 active; AID 540277, 2011; active means potentiation above 80%; inconclusive means 30% to 80%; inactive means below 30%; also: 0% is about no effect
Target sequence (Q8NER1 whole entry, looked up): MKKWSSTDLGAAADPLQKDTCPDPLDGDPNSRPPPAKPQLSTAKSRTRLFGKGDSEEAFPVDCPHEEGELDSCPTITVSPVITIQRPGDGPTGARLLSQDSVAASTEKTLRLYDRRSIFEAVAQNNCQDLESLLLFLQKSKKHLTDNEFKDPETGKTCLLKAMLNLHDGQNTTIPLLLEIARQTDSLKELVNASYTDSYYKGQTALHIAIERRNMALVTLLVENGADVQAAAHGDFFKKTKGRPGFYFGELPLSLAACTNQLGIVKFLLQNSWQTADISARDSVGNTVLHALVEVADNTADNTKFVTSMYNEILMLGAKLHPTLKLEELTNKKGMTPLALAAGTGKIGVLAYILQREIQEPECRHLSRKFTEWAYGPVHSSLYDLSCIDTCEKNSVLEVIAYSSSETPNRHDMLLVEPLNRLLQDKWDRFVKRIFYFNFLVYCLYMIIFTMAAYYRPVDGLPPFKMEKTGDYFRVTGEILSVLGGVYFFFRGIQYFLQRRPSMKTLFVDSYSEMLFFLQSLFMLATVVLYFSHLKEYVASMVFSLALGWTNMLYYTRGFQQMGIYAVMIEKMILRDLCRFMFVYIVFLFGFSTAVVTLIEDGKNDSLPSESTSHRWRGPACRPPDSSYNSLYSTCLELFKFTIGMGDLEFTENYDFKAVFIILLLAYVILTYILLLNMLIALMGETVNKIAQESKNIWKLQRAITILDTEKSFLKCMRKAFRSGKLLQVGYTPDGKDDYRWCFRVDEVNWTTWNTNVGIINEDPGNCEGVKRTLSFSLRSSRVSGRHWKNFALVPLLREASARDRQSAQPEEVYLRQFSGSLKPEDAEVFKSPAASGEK
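TRPV1-expressing cells were cultured overnight at 35.5C and loaded with Fluo-8 calcium dye for 40 to 90 min at room temperature. After a 10 s baseline, compound was added and calcium influx was read kinetically for 3 min (ex 480/em 520 nm).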
* marks the source's active call; other numbers are inactive results; ? = inconclusive; · = not tested or not shown; [ ] = remark or other dose. The order is random. About 4.4% of those tested had a hit in this group.

Second line of a record – TRPML1 inh	Menin-MLL FL inh	Sfp PPTase inh	TRPV1 PAM	PINK1 modulator	TRPML1 ag	ClpP mod
> Cc1ccc(SCC(=O)OC(C)C(=O)Nc2ccc(S(N)(=O)=O)cc2)cc1C (centres undefined)
    -13.1	·	·	-13.4	0.2%	-0.2	0.9%
> COc1cccc(Nc2cc(C)nc3nc(-c4ccc(Cl)cc4)nn23)c1
    -9.4	·	·	·	0.4%	-0.9	-4.4%
> CC(=O)Cn1c(CN2CC(C)CC(C)C2)nc2c1c(=O)n(C)c(=O)n2C (centres undefined)
    32.8	-0.6	10.8%	-12.6	0.4%	1.4	0.6%
> N#Cc1nc(-c2ccc(OCc3ccccc3Cl)cc2)oc1N1CCCCCC1
    ·	·	·	·	3.7%	-0.6	4.0%
> Cc1nnc(SCC(=O)NC2CCCCC2)n1C1CCCCC1
    -26.3	1.4	-2.0%	12.3	14.9%	0.3	0.7%
> Cc1cccc(-c2noc(-c3ccccc3C(=O)NCc3ccco3)n2)c1
    -9.6	3.5	39.8µM*	11.5	3.2%	1.6	0.4%
> COc1ccc(CC(=O)Nc2ccc(S(=O)(=O)Nc3cc(C)on3)cc2)cc1
    -2.9	-0.5	-10.7%	7.3	2.9%	-0.4	-3.5%
> CC(C(=O)Nc1cc([N+](=O)[O-])ccc1Cl)N1CCN(c2ccc(O)cc2)CC1 (centres undefined)
    -2.7	6.9	56.2µM*	3.4	-1.6%	0.9	-2.5%
> CC1(C)C(c2ccc(Cl)cc2)=[N+]([O-])C2(CCCC/C2=N\O)N1O (centres undefined)
    -16.4	1.1	19.0%	9.7	6.0%	-0.3	0.3%
> Cc1cccc(-c2nc(SCc3cc(=O)c4c(C)cc(C)cc4[nH]3)n[nH]2)c1
    11.7	·	·	·	2.5%	2.3	-0.7%
> COc1ccc(OC)c(NC(=O)CCCNC(=O)c2ccc(Cl)cc2)c1
    ·	-2.1	4.2%	29.4	3.4%	·	0.5%
> Cn1c(=O)cc(Nc2ccc(Cl)cc2)[nH]c1=O
    14.6	0.7	2.0%	6.9	3.3%	0.2	·
> Cc1ccc(NC(=O)CCCCCC2NC(=O)NC2C)cc1 (centres undefined)
    3.0	6.4	16.5%	1.5	7.0%[38.3 µM]	-0.2	0.8%
> O=C(CCNS(=O)(=O)c1ccccc1C(F)(F)F)NCCCSc1ccccc1
    7.2	2.2	18.1%	-0.6	1.8%	0.9	-6.3%
> Cc1ccc(CSc2nnc(-c3ccc4c(c3)OCO4)o2)cc1
    -22.3	2.7	-12.0%	-2.1	20.6%	2.2	34.8%
> CCN(CC(=O)Nc1ccc(NC(C)=O)cc1)C(=O)C1CC(=O)N(Cc2ccc(C)cc2)C1 (centres undefined)
    -0.4	·	·	4.5	-0.6%	0.3	?
> COc1cc(C(=O)O)ccc1OC(C)=O
    14.1	6.5	17.9%	-2.7	-5.2%[38.3 µM]	0.5	-2.1%
> COc1ccc([C@H]2C[C@@H](n3cc(COC(=O)c4ccccc4)nn3)[C@H](O)CN2CC2CCCCC2)cc1
    -3.0	·	·	·	1.5%	0.7	-4.7%
> Brc1ccc(-c2noc(COc3ccc4ccccc4c3)n2)o1
    -8.7	5.8	?	15.6	4.4%	-0.5	-1.9%
> Cc1cc(N2CC(C(=O)O)CC2=O)ccc1Br (centres undefined)
    6.0	4.5	20.6%	7.1	1.0%	-0.5	-0.2%
> CCCCn1c(SCC(=O)c2ccccc2)nc2ccsc2c1=O
    16.5	7.7	-4.6%	-33.6	-0.1%	3.2	0.2%
> Cn1/c(=N/N=C/c2ccc(Cl)c([N+](=O)[O-])c2)sc2ccccc21
    4.7	3.1	12.5%	-7.6	1.5%	0.0	-4.5%
> COc1nc(-c2ccccc2)cc(-c2ccc(OC)c(OC)c2)n1
    9.5	2.1	?	-0.3	-2.6%[38.3 µM]	1.7	22.4µM*
> O=C(C1CN(C(=O)c2cc3ccccc3o2)c2ccccc2O1)N1CCCCC1 (centres undefined)
    -4.1	·	·	·	0.9%	-1.1	-0.3%
> O=C(O)/C=C/C(=O)Nc1ccc2c(c1)C(=O)c1ccccc1C2=O
    -5.8	-1.0	-6.2%	-4.8	1.8%	-0.8	0.6%
> Fc1ccc(C(CNC(=S)NC2CCCCC2)N2CCOCC2)cc1 (centres undefined)
    -1.6	0.9	14.8%	-4.8	1.1%	-0.6	·
> O/N=C/c1cc2ccccc2n1Cc1ccccc1F
    4.4	-7.3	24.1%	6.1	1.1%	1.9	0.0%
> N/C(=N\OC(=O)CC1CCCCC1)c1ccncc1
    5.1	2.7	19.8%	9.6	1.6%	2.2	1.2%
> CC(C)c1ccc(/C=C/C(=O)Nc2nn[nH]n2)cc1
    ·	0.2	20.8%	14.9	·	·	·
> Cn1cccc1Cc1nnc(SCC(=O)Nc2ccccc2)n1-c1ccc(F)cc1
    -1.2	3.8	-16.6%	-3.2	-0.2%	0.2	11.3%
> Cc1cc(/C=C2\SC(=O)N(C)C2=O)c(C)n1-c1cccc(C(=O)O)c1
    -8.3	2.8	2.2%	-11.5	-2.8%	1.9	-12.7%
> COc1ccc2c(c1)CC(NC(=O)Nc1ccc(NC(C)=O)cc1)CO2 (centres undefined)
    -6.6	·	·	·	0.9%	0.0	0.9%
> Cc1cccc(Nc2c3c(nc4ncnn24)CCC3)c1
    -1.1	2.4	10.4%	6.9	1.2%	0.0	0.6%
> CCC(O)(CC)C(=O)NN(C(=O)Nc1csc2c1CCCC2)c1ccccc1
    -8.7	3.3	8.3%	2.5	3.9%	0.3	-5.3%
> Cc1ccccc1CNC(=O)c1ccccc1C(=O)O
    2.5	0.4	6.4%	-6.9	2.5%	-1.2	0.9%
> COc1ccc(CNC(=O)CN(C(=O)CCC(=O)Nc2nccs2)c2ccc3c(c2)OCO3)cc1
    0.9	·	0.3%	10.2	4.6%	-0.7	·
> COCCCn1c(SCC(=O)Nc2ccccc2)nnc1-c1ccncc1
    -2.7	0.2	15.0%	-2.0	-1.3%	0.8	-0.4%
> COc1ccc(C(=O)NCc2ccc3c(c2)OCO3)cc1S(=O)(=O)N(C)Cc1ccccc1
    27.0	2.9	2.7%	3.0	-0.3%	1.2	-3.2%
> C=C1CC2C(=O)N(Cc3cc(OC)ccc3OC)C(C(=O)OCC)C1N2C (centres undefined)
    -11.3	0.0	7.2%	·	·	0.3	·
> CCCS(=O)(=O)c1nc(S(=O)(=O)c2ccc(C)cc2)c(NC(C)c2ccccc2)s1 (centres undefined)
    -10.8	·	·	·	-0.3%	2.2	-4.1%
> CCc1ccc2nc(N3C(=O)c4oc5ccccc5c(=O)c4C3c3ccc(OC)c(OC)c3)sc2c1 (centres undefined)
    ·	6.2	27.2%	-12.5	·	·	·
> Oc1ccc(C[C@H]2CNCCN2CCCCC2CCCCC2)cc1
    13.1	·	·	-13.2	-0.8%	-0.3	-0.2%
> Cc1cccc(C(C)C)c1NC(=O)C(NS(=O)(=O)c1cccc2nsnc12)c1ccccc1 (centres undefined)
    -12.2	·	·	·	0.9%	1.2	-0.6%
> CC(C)=CCCC(C)CN1CCC(n2nccc2NC(=O)c2cccnc2)CC1 (centres undefined)
    8.3	·	10.6%	-10.8	-0.4%	-0.4	-1.9%
> CN1CCN(c2ncc3nc(CCc4ccccc4)c(=O)n(CCc4ccccc4)c3n2)CC1
    ·	27.7	-6.2%	·	5.0%	·	·
> CCc1ccccc1NC(=O)CSc1nc2cc(C(=O)NCC3CCCO3)ccc2c(=O)n1CC1CCCO1 (centres undefined)
    -3.6	·	·	·	0.3%	-0.3	-7.6%
> Cc1cccc(NC(=O)c2ccc(S(=O)(=O)N3CCCCC3C)cc2)n1 (centres undefined)
    7.7	·	·	·	3.9%	0.7	-0.8%
> Cc1noc(C)c1S(=O)(=O)Nc1ccc(C(=O)NCc2ccccc2)cc1
    20.5	5.8	15.3%	10.2	-0.3%	-0.2	0.6%
> C#CCOCCOCCOCCNc1nc(N2CCN(C(=O)[C@H](CCCCN)n3cc(CN)nn3)CC2)nc(N2CCN(C(=O)[C@H](CCC(=O)O)n3cc(CN)nn3)CC2)n1
    -4.5	·	·	·	-1.2%	-0.3	1.9%
> COc1cccc(-c2cc(C(F)(F)F)n3nc(-c4ccc(C)cc4)cc3n2)c1
    1.3	·	·	·	0.3%	2.3	-2.7%
> Cc1ccc(-c2nn(C)c(=O)c3ccccc23)cc1S(=O)(=O)NCCO
    6.3	0.9	21.2%	5.4	7.5%[38.3 µM]	1.5	0.7%
> Cc1ccccc1NC(=O)CCn1cnc2onc(-c3ccc(F)cc3)c2c1=O
    50.9	·	·	·	?	-0.1	-0.1%
> COC(=O)Cn1ncc2c3ccccc3n(Cc3ccccc3)c2c1=O
    27.3	3.5	2.1%	-12.5	1.2%	0.9	?
> CN(C)CCNc1nc(-c2ccccc2)c2c(c1C#N)CC(C)(C)OC2
    0.7	3.2	18.3%	3.0	2.2%	0.8	?
> OC[C@@H]1CN(Cc2ccco2)C[C@H](n2cnc3c(NC4CCC4)ncnc32)O1
    9.0	·	·	·	0.0%	-0.1	1.3%
> N#Cc1ccc(C(=O)Nc2nc(SCc3ccc(Cl)cc3)n[nH]2)cc1
    21.3	6.8	-5.3%	23.0	5.6%	-0.7	-1.0%
> Cc1cccc(OCC(=O)N2CCN(C(=O)CCC3CCCC3)CC2)c1
    14.8	4.5	-23.5%	5.6	-0.7%	-1.2	-0.9%
> CCSc1ncc(Cl)c(C(=O)Nc2c(C(=O)c3ccccc3)oc3ccccc23)n1
    -9.3	·	·	·	1.6%	-0.2	-0.2%
> CCN1C(=O)[C@H]2[C@@H](c3ccc(OC)cc3)N[C@]3(CCCN(Cc4ccc(Br)cc4)C3=O)[C@H]2C1=O
    7.7	·	·	·	1.8%	-0.4	2.2%

Source: PubChem BioAssay
